# VACV E9 pol inh: vaccinia E9 polymerase processive synthesis inhibitors, primary screen, biochemical, absorbance; Vaccinia virus DNA polymerase (E9) processive complex; in vitro processive DNA synthesis, absorbance read-out; hits give low values; some inactives read as strong as hits; normalized absorbance, % (test concentration not listed); hit rate 0.94% among 46,000; AID 493162, 2011;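 active means replicate mean up to 90% and picked by the depositor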;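 further: 100% = median of the test wells of a plate; 100 nL library stock went into each well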
# Active calls of the source: *.
SMILES,VACV E9 pol inh
COC(=O)c1ccc(C(=O)Nc2cccc3c(OC)cccc23)cc1,101
COC(=O)c1ccccc1NC(=O)n1ncc2c(C)cccc21,114
O=C(Nn1c(SCc2ccc(F)cc2)nc2ccsc2c1=O)c1ccccc1,100
COC(=O)C1CCCCCC1=O (stereo unspecified),98
CC1(C)CC(NC(=S)Nc2ccc(S(N)(=O)=O)cc2)CC(C)(C)N1,101
O=C1Nc2ccccc2/C1=C/c1ccc(N2CCOCC2)cc1,100
CCN1C(=O)NC(=O)/C(=C\c2cn(CC(=O)N3CCCC3)c3ccccc23)C1=O,100
CC(Nc1ncnc2nc[nH]c12)c1ccccc1 (stereo unspecified),100
CCOc1ccccc1NC(=O)CC1SC(N)=NC1=O (stereo unspecified),88
Cc1ccc(Nc2cc(C(=O)NCCC(C)C)c3ccccc3n2)cc1C,71*
Clc1ccc(CNc2nc3ccccc3[nH]2)cc1Cl,84
Cc1cc(C)nc(/N=C2\NC(=O)CC(C(=O)O)N2c2cccc(Cl)c2)n1 (stereo unspecified),109
CCC1CCCCN1S(=O)(=O)c1ccc(NC(=O)COc2ccc(OC)cc2)cc1 (stereo unspecified),99
O=C(Nc1ccc(-c2ccccc2)cc1)C1CC1c1ccccc1 (stereo unspecified),100
CC1CCc2c(sc3ncnc(Oc4ccccc4F)c23)C1 (stereo unspecified),101
COc1ccc(OCc2c(C#N)c3ccccc3n2C)cc1,99
CC(C)CCNS(=O)(=O)c1ccc(Cl)c(Cl)c1,100
CCCNC(=O)c1ccc2c(c1)ncn2-c1cccc(Cl)c1,100
O=C(O)c1ccc(-c2ccccc2)s1,88
CCc1nn(C(=O)c2ccccc2)c2c1C(=O)CC(C)(C)C2,101
O=C(NCc1ccccc1Cl)C1CCCN(c2ncnc3c2nc2n3CCCCC2)C1 (stereo unspecified),96
CCOc1ccc(C(=O)NCC(=O)N2CCN(Cc3ccccc3)CC2)cc1,97
O=C(CSc1nccc2ccccc12)N1CCN(c2ccccn2)CC1,92
CCCNC(=O)c1oc(=O)c2ccccc2c1-c1ccc(C)cc1,83
CCn1c(-c2ccc(OC)cc2)nc2ccccc21,104
Cc1ccc2nc(-c3ccc(N=Cc4ccc[nH]4)cc3)sc2c1,100
CCOC(=O)c1cc(-c2ccccc2)n(CCC(=O)N(C)C2CCCCC2)c1C,90
O=C(Cc1ccccc1)Nc1nc2ccc(Cl)cc2s1,91
CC(=O)Nc1nc(SCC(C)C)n[nH]1,102
Cc1c2cnn(-c3ccccc3)c(=O)c2c(C)n1CCCC(=O)NC1CCCCCC1,104
Cc1ccc(-c2sc(=S)n3c4ccccc4c(=O)n(Cc4ccc(C#N)cc4)c23)cc1,102
CN1CCc2c(n(CC(O)CNCc3ccccc3)c3ccccc23)C1=O (stereo unspecified),100
CCN(/C=C/c1nnnn1-c1ccc(Br)cc1)CC,84
O=C(O)c1ccc(N2N=C(C(F)(F)F)/C(=C/c3ccc(OC(=O)c4cccs4)cc3)C2=O)cc1,23*
N#CC1=C(SCC(=O)N2CCOCC2)NC(=O)CC1c1ccccc1F (stereo unspecified),92
COC(CNC(=O)CC1C(=O)N(Cc2ccccc2)C(C)c2nc3ccccc3n21)OC (stereo unspecified),99
CN1CCC(N(C)C(=O)c2cc3ccccc3o2)CC1,96
Cc1ccc(N2C(N)=C(C#N)C(c3ccccc3)C3=C2CC(C)(C)CC3=O)cc1 (stereo unspecified),100
O=C(Nc1ccncc1)C1COc2ccccc2O1 (stereo unspecified),95
CSc1ccccc1NC(=O)COC(=O)c1cccc2ccccc12,97

# Part of the list above, with bars between the fields.
SMILES | VACV E9 pol inh
Cc1ccc(N2C(N)=C(C#N)C(c3ccccc3)C3=C2CC(C)(C)CC3=O)cc1 (stereo unspecified) | 100
COC(CNC(=O)CC1C(=O)N(Cc2ccccc2)C(C)c2nc3ccccc3n21)OC (stereo unspecified) | 99
CSc1ccccc1NC(=O)COC(=O)c1cccc2ccccc12 | 97
CCN(/C=C/c1nnnn1-c1ccc(Br)cc1)CC | 84
CN1CCC(N(C)C(=O)c2cc3ccccc3o2)CC1 | 96
Cc1ccc(-c2sc(=S)n3c4ccccc4c(=O)n(Cc4ccc(C#N)cc4)c23)cc1 | 102

# (listing goes on)
SMILES,VACV E9 pol inh
COc1ccc(/C=C/C(=O)Nc2ccc(C)c(C)c2)cc1OC,102
CC(C)(C)c1csc(Cc2ccccc2Cl)n1,99
CN1C(=O)C[C@H](C(=O)O)[C@H]1c1cccnc1,99
Cc1nc(C)c(C#N)c(-c2ccc(Cl)cc2)c1C#N,106
O=C(CNC(=O)C1CCCCC1)Nc1ccc(Cl)cc1,104
CN(O)/C=C/C(=O)c1ccc(Br)cc1,117
CSCCC1NC(=S)N(Cc2ccccc2)C1=O (stereo unspecified),101
CCc1nn(C(C)C(=O)NCCN2CCN(c3cccc(C)c3C)CC2)c(=O)c2cc3occc3n12 (stereo unspecified),88
CCCC1=NNC(=O)C1Cc1c(Cl)cccc1Cl (stereo unspecified),87
CC1(C)C2CCC1(CS(=O)(=O)N1CCCN(c3nc4ccc(Cl)cc4s3)CC1)C(=O)C2 (stereo unspecified),99
Cc1c(CN2CCc3ccccc3C2)sc2ccccc12,104
C=CCn1nnnc1SCC(=O)c1ccccc1,98
O=C(O)CCCC(=O)Nc1cccc(NC(=O)c2ccco2)c1,107
C=CC(=O)n1nccc1-c1sc(COc2cccc(Cl)c2)nc1C,100
CN(C(=O)CSc1ncnc2ccccc12)c1ccccc1,102
Cc1cc(C)c(Cn2c(SCc3cccc(F)c3)nc3ccncc32)c(C)c1,105
Cc1ccc2oc(=O)c3cc(C(=O)N4CCCCC4)sc3c2c1,100
O=C(O)CC(CC(=O)Nc1nncs1)c1ccccc1 (stereo unspecified),103
O=C(O)c1n[nH]c2c1CCC2,105
CC(=O)N[C@@H](Cc1c[nH]c2ccccc12)C(=O)O,100
N#Cc1ccccc1NC(=O)COC(=O)Cc1cccc2ccccc12,95
CC(C)c1cc(C(=O)O)n(-c2ccccc2)n1,103
COc1ccc(CN2CCN(Cc3c[nH]c4ccccc34)CC2)c(OC)c1OC,100
CC1=NNC(=O)C1Cc1ccccc1 (stereo unspecified),98
Cc1ccsc1C=Nc1ccc(Cl)cn1,100
COC(=O)C1=C(N)OC2=C(CCCC2=O)C1c1cccnc1 (stereo unspecified),96
COC(=O)Cn1c(C(=O)OC)ccc1-c1ccco1,103
CN1C(=O)/C(=C/C2=Cc3ccccc3OC2)SC1=S,113
COC(=O)C(Cc1c[nH]c2ccccc12)NC(=O)c1ccc(OC)cc1 (stereo unspecified),99
c1ccc(-c2cn3nc(-c4ccccc4)c(-c4ccccc4)nc3n2)cc1,100

# Filtered by structure, the compounds so far containing a cyano group (6)
SMILES,VACV E9 pol inh
COc1ccc(OCc2c(C#N)c3ccccc3n2C)cc1,99
Cc1ccc(-c2sc(=S)n3c4ccccc4c(=O)n(Cc4ccc(C#N)cc4)c23)cc1,102
N#CC1=C(SCC(=O)N2CCOCC2)NC(=O)CC1c1ccccc1F (stereo unspecified),92
Cc1ccc(N2C(N)=C(C#N)C(c3ccccc3)C3=C2CC(C)(C)CC3=O)cc1 (stereo unspecified),100
Cc1nc(C)c(C#N)c(-c2ccc(Cl)cc2)c1C#N,106
N#Cc1ccccc1NC(=O)COC(=O)Cc1cccc2ccccc12,95

# (listing goes on)
SMILES,VACV E9 pol inh
COc1ccc(C(=O)NCc2ccccc2)c(OC)n1,95
C1CCC2(C1)OCC(CN1CCOCC1)O2 (stereo unspecified),100
O=C1CSc2cc(S(=O)(=O)N3CCC(Cc4ccccc4)CC3)ccc2N1,103
COc1ccc(C=Nc2ccc(Br)cc2)cc1OC,100
CCOc1ccc(NS(=O)(=O)N(C)C)cc1,98
O=C(/C=C/c1ccco1)OCC(=O)c1ccccc1,101
O=C(C1CC1)N1CCc2cc(S(=O)(=O)N3CCCCC3)ccc21,104
CC1CC(C)CN(C(=O)c2ccc(C#N)cc2)C1 (stereo unspecified),102
O=C(C1c2ccccc2Oc2ccccc21)N1CCC(c2ccccc2)C1 (stereo unspecified),100
CN(c1ccccc1)S(=O)(=O)c1cccc(C(=O)N2CCCCCC2)c1,92
CCCC(=O)Nc1c2c(nn1-c1cccc(Cl)c1)CS(=O)(=O)C2,91
CCOc1ccc(CCNS(=O)(=O)c2c(C)cc(C)cc2C)cc1OCC,100
O=C1CCCN2N=C(SCC(=O)c3ccc(Cl)cc3)SC2=N1,87
Oc1ccc2ccccc2c1CN1CCN(c2ccccn2)CC1,101
Nc1ccc(-n2nncc2-c2ccccc2)cc1,101
COc1cccc(NC2=NC(C)(C)CS2)c1,105
CCCOC(=O)c1cccc(NC(=O)C23CCC(C)(C(=O)O2)C3(C)C)c1 (stereo unspecified),102
CC(C)C1C(C#N)=C(N)SC(N)=C1C#N,100
COC(=O)C1OC2(CCCC2)OC1C(=O)OC (stereo unspecified),101
Cc1cc(O)c(C=Nc2cccc(C(F)(F)F)c2)c(=O)o1,97

# Retrieved by structure from the list above:
SMILES,VACV E9 pol inh
CCCOC(=O)c1cccc(NC(=O)C23CCC(C)(C(=O)O2)C3(C)C)c1 (stereo unspecified),102
Nc1ccc(-n2nncc2-c2ccccc2)cc1,101
COC(=O)C1OC2(CCCC2)OC1C(=O)OC (stereo unspecified),101
CCCC(=O)Nc1c2c(nn1-c1cccc(Cl)c1)CS(=O)(=O)C2,91
Cc1cc(O)c(C=Nc2cccc(C(F)(F)F)c2)c(=O)o1,97
CC(C)C1C(C#N)=C(N)SC(N)=C1C#N,100
Oc1ccc2ccccc2c1CN1CCN(c2ccccn2)CC1,101
COc1cccc(NC2=NC(C)(C)CS2)c1,105

# Continued:
SMILES,VACV E9 pol inh
CCN1C(=O)C(=Cc2c(O)n(CC)c(=O)n(CC)c2=O)C(=O)N(CC)C1=O,108
CNC(=O)c1ccc(Cn2c(SCc3ccc(F)cc3)nc3ccncc32)cc1,105
Cc1sc2nc(SCC(=O)NCCO)nc(N)c2c1C,85
Clc1ccc(-c2cn3ccccc3n2)cc1,99
CCN(CC)CC#Cc1cccc(C)c1,100
COc1ccc(OCc2nnc3n2CCC3)cc1,99
O=C(Nc1ccccc1)C1CCN(S(=O)(=O)c2ccccc2)CC1,100
CC(O)CN=c1cc(-c2ccccc2)oc2ccc(Cl)cc12 (stereo unspecified),46*
CC(C)CC(C(=O)N1CCOCC1)N1Cc2ccccc2C1=O (stereo unspecified),102
c1ccc(-n2c3c(c4ccccc42)CCC3)cc1,100
O=C(/C=C/c1cccs1)Nc1scc(-c2ccccc2)c1C(=O)O,96
O=C(CCCN1C(=O)/C(=C\c2ccco2)SC1=S)Nc1ccc2ccccc2c1,100
N#CC(C#N)=C1C(C#N)=C(N)OC1c1ccccc1 (stereo unspecified),100
NNC(=O)Cc1cc(Br)sc1Br,100
COc1ccc2cc3cc(C(=O)NCCCN4CCCCCC4)sc3nc2c1,40*
CC(C)c1cc(C(C)C)c(S(=O)(=O)n2ccnc2)c(C(C)C)c1,101
C=CCn1c(=S)[nH]c2ccccc2c1=O,100
CC(C)C(=O)NC(c1ccc(Cl)cc1Cl)c1ccc2cccnc2c1O (stereo unspecified),99
O=C(/C=C/c1ccc(Cl)cc1Cl)NCC1CCCO1 (stereo unspecified),100
N#Cc1cccc(NC(=O)C23CC4CC(CC(Cl)(C4)C2)C3)c1,99
O=C(CSc1nnnn1-c1ccccc1)c1ccccc1,100
CCS(=O)(=O)CCSc1nc(C)cc(C)n1,100
Cc1ccccc1NC(=O)c1cnn2ccccc12,101
CC(=O)N[C@H]1[C@H](Oc2nc3cc(C)ccc3o2)O[C@H](CO)[C@@H](O)[C@@H]1O,104
CCc1ccc(-n2[nH]nnc2=S)cc1,95
CC1=C(C(=O)Nc2ccccc2)C(c2cccs2)C(C#N)=C(SCC(=O)Nc2ccc(F)cc2)N1 (stereo unspecified),100
CC(C)NC(=O)CCn1c(=O)oc2ccccc21,100
FC(F)(F)Oc1ccc(C2c3ccsc3CCN2Cc2ccccn2)cc1 (stereo unspecified),95
N=C1/C(=C/c2cccs2)C(=O)N=C2SC=C(c3ccccc3)N12,100
Cc1ccc(OCC(=O)Nc2ccc(-c3nn4c(C)nnc4s3)cc2)cc1,104
Fc1ccc(C=Nc2ccc3ccccc3c2)cc1,99
O=C(CSc1nc(-c2ccccc2)[nH]c1-c1ccccc1)Nc1ccccc1,89
C=CCn1c(SCC(N)=O)nnc1-c1cccs1,106
CCC(=O)N1CCc2cc(S(=O)(=O)NC(CC(C)C)C(=O)NC3CCCC3)ccc21 (stereo unspecified),103
Cc1ccc(NC(=S)Nc2ccc(N3CCOCC3)cc2)cc1C,101
CN1CCN(S(=O)C23CC4CC(CC(C4)C2)C3)CC1 (stereo unspecified),101
O=C(O)C(Cc1ccc(F)cc1)c1ccccc1 (stereo unspecified),104
CCn1c(-c2ccc(N)cc2)nc2ccccc21,95
O=C(O)c1ccccc1NCCc1ccc(F)cc1,90
Cc1ccc(NC(=O)CC(NCCN2CCOCC2)C(=O)O)cc1Cl (stereo unspecified),100
Cc1nn(-c2ccccc2)c2sc(C(N)=O)cc12,98
COc1ccc2cc(CCNC(=O)c3ccccc3)c(=O)[nH]c2c1,100
Cc1ccc2c(c1)sc1ncc(S(=O)(=O)c3ccc(F)c(Cl)c3)c(=O)n12,92
CCOC(=O)c1cc(-c2ccccc2)n(CC(=O)N2CCCCCC2)c1C,104
CC1CCC(C(C)C)C(NC(=O)c2cccc3ccccc23)C1 (stereo unspecified),108
Nc1ccc(C(=O)CC(=O)Nc2ccc(Cl)cc2)cc1,99
CC(c1ccco1)N(C(=O)c1sc2ccccc2c1Cl)c1ccccn1 (stereo unspecified),95
CSc1nnc(-c2cccs2)n1-c1ccccc1,107
COCc1cc(=O)n2[nH]c(Nc3cc(Cl)ccc3C)nc2n1,105
O=C(O)CSCC(=O)N1CCCCC1,95

# Screening data deposited in PubChem BioAssay by ICCB-Longwood Screening Facility, Harvard Medical School.

# Some of the compounds tested; count on the stated rates, not on these rows.
